From PubChem BioAssay
HPGD block: HPGD (human) dehydrogenase inhibition; purified HPGD, NADH fluorescence kinetic, PGE2 substrate; Potency, µM, without a hit: at the top dose activity change, negative = inhibition, usual class: inhibitors; hit rate 4.3% among 150,000; AID 894; active = well fitted inhibition curve with a large enough effect (not every such curve was filed as active); inconclusive = small, poorly fitted or top-dose-only effect, or another doubt; inactive = no such curve, though single readings can be large or run the other way;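 further: top concentration of the series not given in the record; plate controls included wells without enzyme; inactives centre near -10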
Target sequence (P15428 whole entry, looked up): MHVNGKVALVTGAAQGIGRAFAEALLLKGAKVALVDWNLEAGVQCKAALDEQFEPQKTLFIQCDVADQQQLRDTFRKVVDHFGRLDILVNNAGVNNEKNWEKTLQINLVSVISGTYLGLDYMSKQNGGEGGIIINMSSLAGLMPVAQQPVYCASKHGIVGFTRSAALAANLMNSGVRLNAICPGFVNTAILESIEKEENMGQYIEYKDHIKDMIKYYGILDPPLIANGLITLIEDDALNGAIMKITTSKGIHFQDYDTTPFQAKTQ
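NADH formation kinetics: reaction with 30 uM PGE2 and 1 mM NAD+ (final), 20 nM enzyme, Tris-HCl pH 8 with Tween 20, after 15 min compound preincubation at room temperature. Fluorescence change, last versus first of five reads.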
* hit, by the source's call; ? = inconclusive. On the % scale 0 is the no-effect control and ±100 the full control effect; potency means the concentration at half of the fitted maximal effect. An excerpt. The share of hits here may be higher or lower than overall.

SMILES	HPGD block
S=C1N(c2ccccc2)C(c2ccc(Cl)cc2)N2CCCN12 (configuration not stated)	-7%
CCC(C)NC(=O)c1cn(CC)c2ccc(S(=O)(=O)N(C)C)cc2c1=O (configuration not stated)	-14%
Cc1cc(=O)[nH]c(SCC2(O)C3CC4CC(C3)CC2C4)n1 (configuration not stated)	1%
Cc1cccc(-c2nnc(SCc3ccc(C#N)cc3)n2Cc2ccco2)c1	-2%
CN1CCN(C(=O)c2c(NC(=O)c3ccco3)sc3c2CCC(C(C)(C)C)C3)CC1 (configuration not stated)	-19%
N#Cc1cc2c(nc1Cl)CCCC2	-10%
Cc1cc(S(=O)(=O)NC2CCCCC2)ccc1OCC(=O)N1CCOCC1	-15%
CN(Cc1ccccc1)S(=O)(=O)c1ccc(OCC(=O)N2CCOCC2)cc1	?
COC(=O)C1=C(C)NC(=O)CC1c1cccc(Cl)c1Cl (configuration not stated)	-8%
COc1ccc(Cl)cc1NC(=O)CSc1nc(N2CCCCC2)nc(N2CCCCC2)n1	-3%
Cc1c(C(=O)Nc2ccc3oc(-c4cccnc4)nc3c2)oc2ccccc12	?
N#Cc1ccccc1OCC(=O)NC(N)=O	-4%
CN(Cc1cccs1)C(=O)CCc1ccc(S(=O)(=O)N2CCOCC2)cc1	-30%
C/C(=N/O)[C@@H]1C[C@H](CC(=O)O)C1(C)C	-9%
COc1ccc2nc(CC(C)(C)CC(=O)O)c[n+]([O-])c2c1	?
CCN(CC)C(=O)CSc1nc2ccccc2c(=O)[nH]1	8.9µM*
CCCCCn1c(NCc2ccco2)nc2ccccc21	3%
Clc1ccc(-c2csc(N/N=C\c3cccnc3)n2)cc1	-15%
O=C(c1ccc(F)cc1)c1c[nH]c(C(=O)NCc2cccnc2)c1	-23%
NCCCCCCN	-6%
COc1ccc(/C=C(/C(=O)Nc2ccccc2C(=O)NC(C)C)c2ccccc2)cc1	-8%
Fc1ccccc1/C=C1\CCCC2=C1Nc1ncnn1C2c1ccccc1F (configuration not stated)	?
CCN(Cc1ccccc1)C(=O)CCCOc1ccccc1	-29%
CCCCCSc1nnc2c(n1)OC(c1cccn1C)N(C(C)=O)c1ccccc1-2 (configuration not stated)	-23%
CCSc1nnc(NC(=O)[C@@H](NC(=O)c2cccc(C)c2)C(C)C)s1	0%
CCOC(=O)c1sc2nc(SC)nc(-c3ccccc3)c2c1N	-2%
O=C(O)C1CCCN(CCC=C(c2ccccc2)c2ccccc2)C1 (configuration not stated)	3%
CC12CCC(C(=O)N3CCN(Cc4ccccc4)CC3)(OC1=O)C2(C)C (configuration not stated)	0%
Cn1cccc1Cc1nnc(SCC(=O)N2CCCCCC2)n1CCc1ccccc1	-9%
Cc1ccc(Oc2ccc(NC(=O)CSc3n[nH]c(N)n3)cc2)cc1	-24%
CN1CCN(C2=Cc3ccc(Cl)cc3Sc3ccc(F)cc32)CC1	?
Cc1ccc2c(c1)sc1nc(=O)n(-c3ccc(Cl)c(Cl)c3)c(=O)n12	-6%
CN(C)c1ccc(-c2nc(N(C)C)c3ccccc3n2)cc1	?
O=C(NCc1ccco1)c1cnccn1	-17%
Cc1ccc(-c2n[nH]c(=S)n2/N=C/c2ccc(C)s2)cc1	4µM*
O=C1CCCc2c1sc1nc3n(c(=O)c21)CCCCC3	-18%
C/C(Cn1nnc2ccccc21)=N\OC(=O)c1ccccc1C	-11%
CC1(CC(=O)O)SC(=O)NC1=O (configuration not stated)	-6%
Cc1cc(C)cc(Oc2coc3cc(OC(=O)c4cccnc4)ccc3c2=O)c1	-11%
CS(=O)(=O)N(CC(=O)N1CCN(c2ccccc2F)CC1)c1cc(C(F)(F)F)ccc1Cl	-15%
COc1ccc(-n2cc(-c3ccccc3)nc2SC)cc1	-20%
CCCC(=O)N1CCN(C2=NS(=O)(=O)c3ccccc32)CC1	-10%
Cc1ccc2c(c1)-c1cc(C)nn1C(c1sccc1C)N2 (configuration not stated)	?
COc1ccc(NS(=O)(=O)c2cccc(N/C(=N\S(=O)(=O)c3ccccc3)c3ccc(F)cc3)c2)cc1	-26%
COCCNC(=S)N/N=C(\C)c1ccc(C)c([N+](=O)[O-])c1	-17%
Cc1ccc(-n2c(SCC(=O)NCc3ccco3)nc3sc(C)c(C)c3c2=O)cc1	?
O=C(c1ccc(CSc2ccccc2)cc1)N1CCCCCC1	0.32µM*
CC1CN(CCCCOc2ccc3ccccc3c2)CC(C)O1 (configuration not stated)	0%
S=c1[nH]nc(-c2cc3ccccc3o2)n1Cc1ccccc1	?
O=C(O)c1ccc(N=NN2CCOCC2)cc1	-14%
CCN(CCCCN1C(=O)c2ccccc2C1=O)c1ccc2c(c1)C(=O)N(C)C2=O	10µM*
Nc1nnc(SCCOc2ccccc2)s1	-24%
N#C/C(=N\O)c1nc2ccccc2[nH]1	-12%
COc1ccc(NC(=O)c2ccc(CN(c3cc(Cl)ccc3C)S(=O)(=O)c3ccccc3)cc2)cc1OC	?
COC(=O)c1ccc(C(=O)NC(=S)Nc2nc3c(s2)CCCC3)cc1	-14%
COC(=O)C(C)Sc1ccc2nnc(-c3cccc(F)c3)n2n1 (configuration not stated)	?
CC1(c2ccccc2)NC(=O)N(CC(=O)NCCC2=CCCCC2)C1=O (configuration not stated)	3%
c1ccc(-c2cnn3nnnc3n2)cc1	-14%
CCCC(=O)NCCc1cc2c(C)ccc(C)c2[nH]c1=O	-20%
NC(=O)C1CCN(c2nc(-c3ccc(Br)cc3)cs2)CC1	1%
Further entries follow.
SMILES	HPGD block
COc1ccc(CCC(=O)NC(C)C)cc1	-19%
CN(C)CC(C)(C)CN1c2ccccc2Sc2ccccc21	-1%
CC(=O)Nc1cccc(C(=O)NC(C)c2ccc(S(N)(=O)=O)cc2)c1 (configuration not stated)	-3%
CCn1cc(CNC(=O)C2C3CCC(C3)C2C(=O)O)cn1 (configuration not stated)	-16%
Cc1ccc(C)c(-n2c(N)c(C(N)=O)sc2=S)c1	?
CC(C)(C)n1nnnc1C(c1cccs1)N(Cc1cccnc1)Cc1ccccc1Cl (configuration not stated)	-18%
CCC(=O)c1c[nH]c(C(=O)NCCCN2CCOCC2)c1	-3%
Cc1ccc2cc(CN(CCN3CCOCC3)Cc3nnnn3Cc3ccco3)c(=O)[nH]c2c1C	-5%
Cc1ccc(NC(=O)CN2C(=O)N/C(=C/c3ccc(C)s3)C2=O)cc1	-16%
COc1ccccc1C(=O)NNC(=O)CCCN1C(=O)/C(=C/c2cccs2)SC1=S	-21%
Cc1nc(SCCC(=O)O)c2ccccc2n1	-10%
O=C(CO/N=C/c1ccccc1OC(F)F)NC1CCCCC1	25µM*
Cc1ccc(C)c(NC(=O)C2C(c3ccccc3)C2(Cl)Cl)c1 (configuration not stated)	-2%
CCCCC/C=C\C/C=C\C/C=C\CCCCC(=O)NCCCC(=O)O	0%
Cc1ccc(C)c(NC2=C(Cl)C(=O)OC2OC(=O)c2ccco2)c1 (configuration not stated)	-5%
CCCCCC1=C2CNC(C)(C(=O)OC)C=C2C(C)C1=O (configuration not stated)	-7%
CCCc1noc(-c2ccc(-c3ccccc3)cc2)n1	?
COc1ccc(-n2c(C)cc(C(=O)CSc3nn4c(=O)c(C(C)(C)C)nnc4s3)c2C)cc1	-6%
Cc1cc(C)nc(N2CCC(C(=O)NCC3CCCCC3)CC2)n1	-6%
CCn1c(Cc2ccccc2)nnc1SCC(=O)Nc1nc2ccccc2s1	-4%
O=C(OCc1ccc2c(c1)OCO2)c1ccc(S(=O)(=O)N2CCCC2)cc1	-10%
CCOC(=O)CCCNC(=O)COc1ccccc1C#N	-6%
N#Cc1c(-c2ccccc2)cc(-c2ccco2)c(C#N)c1N	?
COc1ccc2oc(=O)c(/C(C)=N/NC(=O)c3ccncc3)cc2c1	-9%
COCC(C)NCc1cccc([N+](=O)[O-])c1 (configuration not stated)	-10%
O=C(Nc1cnccn1)c1cccs1	-20%
O=C1CC(c2ccccc2)CCc2sccc2N1 (configuration not stated)	25µM*
O=C(Nc1ccc(COc2ccccc2)cc1)c1cccc([N+](=O)[O-])c1	-8%
CC(C)c1nc(SCC(=O)N2c3ccccc3CC2C)c2ccccc2n1 (configuration not stated)	-8%
COC(=O)c1ccccc1NC(=S)NC(NC(=O)c1ccccc1[N+](=O)[O-])C(Cl)(Cl)Cl (configuration not stated)	-23%
C/C(Cc1ccccc1)=N\NC(=O)C1CCCCC1	-4%
Cn1ncc(Cl)c(Oc2ccc(C(C)(C)C)cc2)c1=O	?
Cc1ccc(-n2c(=O)cc(NCc3cccnc3)[nH]c2=O)cc1	-18%
COc1cc(C)nc(Oc2ccc(=O)[nH]n2)n1	-5%
O=C(OCC(=O)c1ccc(S(=O)(=O)N2CCCC2)cc1)C1=COCCO1	-3%
FC(F)Oc1ccccc1NC(=S)NCc1ccco1	-6%
CCCCOC(=O)C(C)Oc1ccc(=O)n(-c2ccccc2)n1 (configuration not stated)	-3%
CC(Oc1ccccc1F)C(=O)Nc1ccc2ccccc2c1 (configuration not stated)	-21%
CCOC(=O)c1c(C)oc2c1c(C=NCC1CCCO1)c(O)c1ccccc12 (configuration not stated)	-7%
CCOc1ccc(N=C(/C(C(=O)C(=O)N2CCOCC2)=C(\O)c2ccccc2)c2ccccc2)cc1	-8%
COc1cccc(OC)c1OCCN1CCN(C(=O)c2ccco2)CC1	-3%
OCCCc1nc2ccccc2n1CCc1ccccc1	1%
OCCCc1nc2n(n1)C(c1cccs1)C=C(c1ccccc1)N2 (configuration not stated)	?
COc1ccc(C(=O)Nc2c(Cl)cc(Cl)cc2C(=O)NCCN2CCOCC2)cc1	-2%
Cc1c(N2C(=O)c3ccc(F)cc3C2=O)c(=O)n(-c2ccccc2)n1C	-10%

18 entries from above in a different format:
SMILES | HPGD block
S=C1N(c2ccccc2)C(c2ccc(Cl)cc2)N2CCCN12 (configuration not stated) | -7%
CCC(C)NC(=O)c1cn(CC)c2ccc(S(=O)(=O)N(C)C)cc2c1=O (configuration not stated) | -14%
Cc1cc(=O)[nH]c(SCC2(O)C3CC4CC(C3)CC2C4)n1 (configuration not stated) | 1%
Cc1cccc(-c2nnc(SCc3ccc(C#N)cc3)n2Cc2ccco2)c1 | -2%
CN1CCN(C(=O)c2c(NC(=O)c3ccco3)sc3c2CCC(C(C)(C)C)C3)CC1 (configuration not stated) | -19%
N#Cc1cc2c(nc1Cl)CCCC2 | -10%
Cc1cc(S(=O)(=O)NC2CCCCC2)ccc1OCC(=O)N1CCOCC1 | -15%
CN(Cc1ccccc1)S(=O)(=O)c1ccc(OCC(=O)N2CCOCC2)cc1 | ?
COC(=O)C1=C(C)NC(=O)CC1c1cccc(Cl)c1Cl (configuration not stated) | -8%
COc1ccc(Cl)cc1NC(=O)CSc1nc(N2CCCCC2)nc(N2CCCCC2)n1 | -3%
Cc1c(C(=O)Nc2ccc3oc(-c4cccnc4)nc3c2)oc2ccccc12 | ?
N#Cc1ccccc1OCC(=O)NC(N)=O | -4%
CN(Cc1cccs1)C(=O)CCc1ccc(S(=O)(=O)N2CCOCC2)cc1 | -30%
C/C(=N/O)[C@@H]1C[C@H](CC(=O)O)C1(C)C | -9%
COc1ccc2nc(CC(C)(C)CC(=O)O)c[n+]([O-])c2c1 | ?
CCN(CC)C(=O)CSc1nc2ccccc2c(=O)[nH]1 | 8.9µM*
CCCCCn1c(NCc2ccco2)nc2ccccc21 | 3%
Clc1ccc(-c2csc(N/N=C\c3cccnc3)n2)cc1 | -15%

Remaining list, next part
SMILES	HPGD block
COC(=O)c1c(NC(=O)c2ccccc2)sc2c1CC(C)(C)OC2	-25%
Cn1c2c(c(=O)n(C)c1=O)C(C(F)(F)F)(C(F)(F)F)N=C(c1ccccc1Cl)N2	-14%
CCCSc1nn2c(=O)c3ccccc3nc2s1	-9%
CCCCN(CC)C(=O)c1cc2cc3ccc(OC)cc3nc2o1	?
Cc1c(C(c2cccc(O)c2)c2c(C)n(C)n(-c3ccccc3)c2=O)c(=O)n(-c2ccccc2)n1C	-3%
Cc1ccc(C(=O)NCCc2csc(-c3cccnc3)n2)cc1	-15%
O=C(CSc1nnc(C2CC2)n1-c1ccccc1)NCCc1ccc(F)cc1	-9%
COc1ccc(C(=O)Nc2ccc(S(=O)(=O)NC(C)C)cc2)cc1	-8%
O=C(Cn1nnc(-c2ccc(CN3CCOCC3)cc2)n1)N1CCCc2ccccc21	-10%
O=C(C1CCCN(S(=O)(=O)c2cccc3nsnc23)C1)N1CCc2ccccc21 (configuration not stated)	-5%
Cc1cc(C)nc(N(C#N)CCOc2ccccc2)n1	-18%
Cc1c(Cc2c(C)n(C)n(-c3ccccc3)c2=O)c(=O)n(-c2ccccc2)n1C	-11%
CCOC(=O)CNC(=O)c1ccc2[nH]c3c(c2c1)CCCC3	-15%
CCOC(=O)C1CCCN(C(=O)Nc2cccc(Cl)c2)C1 (configuration not stated)	1%
CCCn1nc(C(=O)Oc2ccc3c(C)cc(=O)oc3c2)c2ccccc2c1=O	?
O=C1c2ccccc2C(=O)N1CCn1c(=O)oc2ccccc21	-7%
CCOC(=O)C1=Nc2ccccc2C1=[N+]=[N-]	-4%
Cc1ccc(S(=O)(=O)NCCNC(=O)c2ccccc2)cc1	-4%
CCOc1ccccc1OCCCCOc1ccccc1F	-4%
Cc1ccccc1CSCC(=O)Nc1c(C)n(C)n(-c2ccccc2)c1=O	0%
O=c1cc(-c2ccccc2)oc2ccccc12	8.9µM*
CCCc1nc2ccccc2n1CCOC	-9%
C=CC1=C2C=C(C3CC3)N(CC3CC3)C=C2C(=O)C(C)(OC(=O)c2ccco2)C1=O (configuration not stated)	-8%
O=C(N1CCOCC1)N1CCN(c2ccccc2)CC1	-7%
CCC(=O)N1CCN(c2ccc(NC(=O)COc3ccccc3Cl)cc2)CC1	-6%
